MgrA-DNA mod: S. aureus MgrA activity modulators, primary screen, biochemical, S. aureus Newman, fluorescence polarization; 84,000 compounds, 0.13% hits; MgrA-DNA binding; inhibition, %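 (about 10 µg/mL by stock and volumes)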;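 active means above 50% in either of two replicates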;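 further: 0% = protein plus DNA without compound and 100% = DNA alone without protein; higher means less MgrA bound to DNA so lower polarization; one replicate is shown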
S aureus helic: inhibitors of S. aureus replicative helicase, primary screen, biochemical, fluorescence unwinding readout; replicative DNA helicase (DnaC/DnaB), Staphylococcus aureus; purified S. aureus helicase, fluorescence unwinding assay; about half of the hits fall short of the stated cut; inhibition, %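 (tested at about 80 µM)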; 120,000 compounds, 0.05% hits;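 active means both duplicates at 50% or more, or one of them with a favoured structure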;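 further: 0% = mean of negative control wells and 100% = mean of positive control wells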
Active calls of the source: *; . = not tested or not shown. Some of the compounds tested. The share of hits here may be higher or lower than overall.

SMILES | MgrA-DNA mod | S aureus helic
NC1=NC(=O)C(CC(=O)NCc2ccccc2)S1 (stereo not given) | . | 9
Cc1ccc(Sc2ncccc2NC(=O)C2CC2)cc1 | -1.6 | .
O=c1c2c(-c3ccc(Cl)cc3)csc2ncn1-n1cccc1 | . | -10
CN(CC(=O)Nc1ccccc1C(F)(F)F)C(=O)CSc1nnc(-c2ccccc2F)o1 | . | -7
Cc1ccc(NC(=S)C(C#N)C(=O)N2CCC(C)CC2)c(C)c1 (stereo not given) | -2.3 | .
CSc1ccc(C(=O)Nc2ccc(Cl)cc2)s1 | 1.1 | .
c1n[nH]c(SCc2ccc(CSc3ncn[nH]3)cc2)n1 | . | -12
CCNC(=O)N(Cc1nc(-c2ccc(C)cc2)no1)C1CCCCC1 | . | 34
CC1=C(C(=O)OCC(F)(F)C(F)(F)F)C(c2ccccc2Br)NC(=O)N1 (stereo not given) | 3.6 | .
CC(C)C(=O)Nn1cnc2c(cnn2-c2ccccc2)c1=O | . | 3
O=C(O)c1cccc2c1-c1ccccc1C2 | 5.7 | .
COc1ccc(C(CNc2ccc(C(F)(F)F)cn2)N(C)C)cc1OC (stereo not given) | . | 9
O=C(CC1CCCCC1)NCC1CCCO1 (stereo not given) | 0.3 | -14
NC(=O)c1c(NC(=O)c2cccc(Br)c2)sc2c1CCC2 | 2.7 | 19
O=c1[nH]c(/C=C2\C=Nc3ccc(Br)cc32)c(O)n1Cc1ccc(Br)cc1 | 1.6 | 11
O=C(CC1CC2CCC1C2)N1CCN(S(=O)(=O)c2ccc(F)cc2)CC1 (stereo not given) | . | 13
CC[n+]1c(C)sc2cc(SC)c(OC)cc21 | 4.2 | 10
COc1ccc2c(CN(C)c3ccccc3)cc(=O)oc2c1 | . | 4
O=C(CCCC1=NS(=O)(=O)c2ccccc2N1)OCc1ccc(Cl)cc1 | -1.8 | -1
O=C(c1ccccc1)N1CCN(C(c2ccccc2)c2ccccc2)CC1 | -0.6 | .
O=C(Cn1cnc2ccccc21)c1ccccc1 | . | 11
CCSC1=C(C#N)C(c2ccc(C)cc2)C(C(=O)OC)C(=O)N1 (stereo not given) | . | -36
COC(=O)c1c(C)oc(C)c1S(=O)(=O)NCc1ccc(Cl)cc1 | -2.8 | .
Cc1ccc(CN2C(=O)/C(=C\c3ccc(C(=O)N4CCN(c5ncccn5)CC4)cc3)Oc3ccccc32)cc1 | . | 7
CSc1ccc(S(=O)(=O)NC2CCCCC2)cc1 | 1.9 | 5

The list goes on, starting with the last 4 of the part before.
SMILES | MgrA-DNA mod | S aureus helic
CCSC1=C(C#N)C(c2ccc(C)cc2)C(C(=O)OC)C(=O)N1 (stereo not given) | . | -36
COC(=O)c1c(C)oc(C)c1S(=O)(=O)NCc1ccc(Cl)cc1 | -2.8 | .
Cc1ccc(CN2C(=O)/C(=C\c3ccc(C(=O)N4CCN(c5ncccn5)CC4)cc3)Oc3ccccc32)cc1 | . | 7
CSc1ccc(S(=O)(=O)NC2CCCCC2)cc1 | 1.9 | 5
Cc1cc(C(F)(F)F)nn1CC(=O)Nc1cc(Oc2cccnc2)cc([N+](=O)[O-])c1 | 0.2 | .
CC1CCCC(C)N1C(=O)COC(=O)c1ccc(C(F)(F)F)cc1 (stereo not given) | 0.3 | 3
CC(Sc1nc2ccccc2n1Cc1ccccc1)C(=O)O (stereo not given) | . | 12
CCOC(=O)N1CC=C2C(C#N)=C(N)C(C#N)(C#N)C(Cc3ccccc3)C2C1 (stereo not given) | -2.9 | 6
COc1ccc(/C=C2/SC(=S)N(C)C2=O)cc1 | 0.2 | 0
CCOC(=O)C1CCC(CNC(=O)Nc2ccc3nc(N4CCN(C)CC4)cc(C)c3c2)CC1 (stereo not given) | . | 30
COc1ccc(OC)c(S(=O)(=O)N2CCOCC2)c1 | . | -25
COc1ccc(CC(=O)N2N=C(c3ccncc3)CC2(O)C(F)(F)F)cc1 (stereo not given) | 2.7 | 10
O=C(c1ccccc1)c1cc2c(cc1Br)OCCCO2 | 2.4 | .
O=C1CC(SC(=Nc2ccccc2)Nc2ccccc2)C(=O)N1CCc1ccccc1 (stereo not given) | 0.4 | 1
CN(C)c1cc(C(=O)O)ccn1 | -1.5 | -3
CCOc1ccc2nc(C(=O)N3CCCC(C)C3)sc2c1 (stereo not given) | 1.1 | -11
O=C1c2ccccc2C(=O)c2c(NC3CCCCC3)ccc(Nc3ccc(Oc4ccccc4)cc3)c21 | -2.8 | .
N#Cc1nc(-c2ccc(Cl)cc2)oc1NCc1ccccc1 | . | 3
COc1cccc(Oc2coc3cc(OCC(N)=O)ccc3c2=O)c1 | 2.5 | 5
CC(C)CC(F)Cc1cnc(=O)[nH]c1 (stereo not given) | . | 26
N#Cc1c(-c2ccccc2)nc(SCC(=O)NC2CCCCC2)[nH]c1=O | . | -13
CS(=O)(=O)/N=C(\N)c1ccccc1 | . | -19
N#Cc1cc2c(nc1SCc1ccccc1)CCCC2=O | 2.5 | 8
FC(F)(F)Oc1ccc(-c2noc(-c3ccno3)n2)cc1 | 2.4 | .
O=C(c1ccco1)N1C(=O)c2cccc3cccc1c23 | 7.7 | 19
CC1(C)C(=O)Nc2ccccc2N1C(=O)CSc1ncnc2ccccc12 | . | 21
CC1(C)CCCC2=C1CC1C(=O)NNC(=O)C1C2 (stereo not given) | . | 13
CN(C)c1nc(-c2ccccc2)ns1 | -3.8 | .
COCCNC(=O)c1ccc(S(=O)(=O)N2CCC(C)CC2)cc1 | . | -5
Other records follow.
SMILES | MgrA-DNA mod | S aureus helic
CCOC(=O)N=S(N)(=O)c1ccc(Cl)cc1 (stereo not given) | -3.9 | -3
O=C1CCCC(O)=C1N=Nc1ccccc1C(=O)O | . | 20
COc1ccc(C2=N/C(=C/c3c(C)nn(-c4ccccc4)c3N3CCCCC3)C(=O)O2)cc1OC | 2.2 | -4
CCN(CC)Cc1ccc(O)c2ncccc12 | . | 13
NC(=O)CSc1nncc2ccccc12 | -1.9 | .
CN(C(=O)Cn1nc(Cc2ccncc2)c2ccccc2c1=O)C1CCCCC1 | . | -2
COc1cc(OC)c(-c2ccccc2)nn1 | -6.4 | .
COc1ccc(N(CCC(=O)O)S(=O)(=O)c2cccc(Cl)c2)cc1 | . | 0
CCN(CC)c1ccc(/C=C2\CCC(/C=N/NC(=O)c3ccoc3C)=C2N2CCOCC2)cc1 | . | -435
CC(C)CCNC(=O)C1CCN(Cc2ccccc2Cl)CC1 | -2.0 | 6
CCCCCc1ccc(S(=O)(=O)Nc2cccnc2Oc2ccc(Cl)cc2)cc1 | 1.0 | .
O=C(O)c1c(F)c(F)c(F)c(F)c1Nc1cccc(C(F)(F)F)c1 | . | -21
CN(CC(=O)Nc1ccc(C(N)=O)cc1)Cc1ccc(C(F)(F)F)cc1 | . | -16
CC1CN(C/C(N)=N/S(=O)(=O)c2cc(Cl)cc(Cl)c2)CC(C)O1 (stereo not given) | 0.1 | .
CC(N)COc1ccc(Cl)cc1 (stereo not given) | 3.4 | 10
Cc1cccc2c1N(C(=O)c1c(-c3c(Cl)cccc3Cl)noc1C)CCC2 | -1.1 | .
O=c1c2ccc(-c3nnc4n3-c3ccccc3SC4)cc2nc2n1CCCCC2 | . | 10
O=C1CCC(C(=O)OCc2cccc(C(F)(F)F)c2)=NN1 | . | -3
CCc1ccccc1NCC(=O)Nc1cccc(OC)c1 | . | -9
CC(C)Oc1cccc(OCC(F)(F)F)c1C#N | -2.9 | .
COc1ccc(Cl)cc1NC(=O)c1nnn(CC(=O)Nc2c(C)cc(C)cc2C)c1N | . | 6
Cc1cc(C)nc(NNC(=S)Nc2ccc(S(=O)(=O)N3CCOCC3)cc2)n1 | . | -6
Cc1nnc(SCC(=O)NCc2ccccc2)n1C(C)C | -1.4 | 3
CN(C1CCCCC1)S(=O)(=O)c1ccccc1C#N | . | -6
CCC(C)NS(=O)(=O)c1ccc(S(=O)(=O)N(Cc2ccc(C)o2)C2CCCC2)cc1 (stereo not given) | -3.5 | 0
Next section.
SMILES | MgrA-DNA mod | S aureus helic
NC(=O)c1c(NC(=S)NC(=O)c2ccccc2Cl)sc2c1CCCC2 | 2.1 | -6
COC(=O)c1cc(C)c(-c2ccc(-c3ccccc3F)cc2)s1 | -0.6 | .
Brc1ccc(N=Cc2ccc[nH]2)cc1 | 0.7 | -1
COC(=O)C1CC2(C(=O)O)CC(C(=O)O)(CC(C(=O)OC)C2=O)C1=O (stereo not given) | -1.2 | 14
Cc1ccc(-c2csc3[nH]c(=S)[nH]c(=O)c23)c(C)c1 | 3.3 | .
Cc1ccc(-n2nc(-c3ccco3)cc2C(=O)O)cc1 | 8.1 | 18
CC1CC(=O)N(CC(=O)Nc2ccccc2)c2ccccc2S1(=O)=O (stereo not given) | . | 5
CCN1CCCC1CNC(=O)c1ccc2nc(N3CCC(C)CC3)sc2c1 (stereo not given) | . | -12
O=C(CNc1ccc(Cc2ccncc2)cc1)c1cccc2ccccc12 | -0.8 | -20
O=C(CSc1n[nH]c(-c2ccncc2)n1)c1ccc[nH]1 | . | -3
Cc1cc(=O)oc2[nH]c(=S)[nH]c(=O)c12 | . | -4
C/C(=C/C(=O)c1ccc(C)cc1)N1CCC(C(N)=O)CC1 | . | -6
CCc1cc(=O)oc2cc(OCC(=O)N(CC)CC)c(Cl)cc12 | -3.3 | 10
CCOc1cc(C(=O)O)ccc1OC | -1.7 | .
O=C1Nc2ccccc2/C1=c1\sc2nc3ccccc3n2c1=O | . | 24
Cc1onc(-c2ccccc2)c1-c1[nH]nc(N)c1C#N | -3.1 | .
FC(F)(F)c1nc2ccccc2nc1-c1cccc(Cl)c1 | -1.2 | 11
CC1CN(c2nc(-c3ccccc3)nc3ccccc23)CC(C)O1 (stereo not given) | 1.1 | -7
CCOC(=O)CCc1c(C)nn(-c2ccc3nnc(C)n3n2)c1C | -2.7 | 2
O=C(NCCN1CCOCC1)c1ccc2c(c1)N(Cc1ccc(Cl)cc1)CCS2 | . | 10
O=c1c2cc3ccccc3oc-2nn1-c1ccc(Cl)cc1 | 0.9 | 7
COC(=O)CSc1nnc(C2CCCCC2)o1 | 3.5 | 6
Cn1c(=O)c(=O)n(C)c2cc(S(=O)(=O)N3CCc4ccccc43)ccc21 | . | -25
COc1ccccc1N(CCCN1C(=O)c2cccc3cccc(c23)C1=O)C(=O)c1cccs1 | 2.5 | .
CC(C)S(=O)(=O)c1csc(NC(=O)Nc2cc(C(F)(F)F)cc(C(F)(F)F)c2)c1Cl | -0.8 | .

5 consecutive records already listed, for reference:
SMILES | MgrA-DNA mod | S aureus helic
Cc1ccc(-n2nc(-c3ccco3)cc2C(=O)O)cc1 | 8.1 | 18
CC1CC(=O)N(CC(=O)Nc2ccccc2)c2ccccc2S1(=O)=O (stereo not given) | . | 5
CCN1CCCC1CNC(=O)c1ccc2nc(N3CCC(C)CC3)sc2c1 (stereo not given) | . | -12
O=C(CNc1ccc(Cc2ccncc2)cc1)c1cccc2ccccc12 | -0.8 | -20
O=C(CSc1n[nH]c(-c2ccncc2)n1)c1ccc[nH]1 | . | -3

Three entries out of the list above, arranged by the value under MgrA-DNA mod, ascending.
compound	MgrA-DNA mod	S aureus helic
O=C(CCCC1=NS(=O)(=O)c2ccccc2N1)OCc1ccc(Cl)cc1	-1.8	-1
CCOc1cc(C(=O)O)ccc1OC	-1.7	.
CSc1ccc(S(=O)(=O)NC2CCCCC2)cc1	1.9	5

Structural class, those above containing a furan ring, fused or not (five)
SMILES | MgrA-DNA mod | S aureus helic
COC(=O)c1c(C)oc(C)c1S(=O)(=O)NCc1ccc(Cl)cc1 | -2.8 | .
O=C(c1ccco1)N1C(=O)c2cccc3cccc1c23 | 7.7 | 19
CCN(CC)c1ccc(/C=C2\CCC(/C=N/NC(=O)c3ccoc3C)=C2N2CCOCC2)cc1 | . | -435
CCC(C)NS(=O)(=O)c1ccc(S(=O)(=O)N(Cc2ccc(C)o2)C2CCCC2)cc1 (stereo not given) | -3.5 | 0
Cc1ccc(-n2nc(-c3ccco3)cc2C(=O)O)cc1 | 8.1 | 18

(cont.)
SMILES | MgrA-DNA mod | S aureus helic
N[C@@H](Cc1ccc([N+](=O)[O-])cc1)C(=O)O | 0.4 | .
O=C(CSc1cn(CCNC(=O)c2ccccc2)c2ccccc12)NCc1ccco1 | . | 16
CC(C)(C(=O)Nc1ccc2c(c1)OCO2)C(=O)Nc1ccc2c(c1)OCO2 | 1.4 | -15
O=C(CN1CCCCC1)N/N=C/c1ccc(Cl)cc1 | 0.7 | 8
CCOC(=O)N1CCC(Nc2nc3ccccc3nc2NS(=O)(=O)c2ccc(Cl)cc2)CC1 | 1.2 | 5
CCCN1C(=O)/C(=N\OCC(=O)Nc2ccc3c(c2)OCO3)c2ccccc21 | . | 9
O=c1cc(NCCc2ccccc2)c2ccccc2o1 | 3.7 | -14
CCCOc1ccc(CNC(=O)Cn2ncc3ccccc32)cc1 | . | 11
CCOC(=O)c1ccc(Nc2nc3nonc3nc2NCc2ccco2)cc1 | -1.8 | 20
CCc1ccc(NC(=O)c2ccc3c(c2)N(CC)CCS3)cc1 | 13 | 5
CC(C(=O)N(C)c1ccccc1)N1CCN(c2ccc(C(F)(F)F)cn2)CC1 (stereo not given) | . | -1
O=C1/C(=C/c2cccs2)SC(=S)N1CCCC(=O)N1c2ccccc2Sc2ccccc21 | 1.5 | 7
O=C(CSc1ncccn1)N(Cc1ccccc1)C1CCS(=O)(=O)C1 (stereo not given) | . | 0
COC(=O)CCCCCCCC(=O)Nc1ccc(C(F)(F)F)cc1 | 0.1 | .
Cc1cccc(NC(=O)c2cccc(Br)c2)n1 | 2.8 | -1
CCOc1ccc(CCNC(=O)c2cc3c(s2)-c2ccccc2S(=O)(=O)C3)cc1OCC | . | -1
Cc1cc(C)c(OCC(=O)N/N=C/c2ccc(O)cc2O)c(Br)c1 | 1.2 | -2
COc1c(C(N)=O)csc1Br | 3.8 | .
CCCN1C(=O)/C(=C/c2ccc(C(C)C)cc2)SC1=S | 2.7 | 10
OC(CN1CCC(O)(c2ccc(Cl)cc2)CC1)C(F)(F)F (stereo not given) | -2.0 | .

From PubChem
